# YopH PTP inh: YopH (Yersinia) phosphatase inhibition. fluorescence Ex485/Em525. inhibition, %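 (about 10 µM by stock and volumes)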. 140,000 tested, 0.16% active. AID 898;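 active means inhibition of 50% or more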;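 further: controls were vehicle for no effect and minimum signal wells for full effect; inactives centre near -20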
# Mtb H37Rv: M. tuberculosis H37Rv growth inhibitors, H37Rv strain (AID 1626) | 220,000 tested, 0.95% active | M. tuberculosis H37Rv growth inhibition; higher % means a stronger effect | inhibition, % at 10 µM, or IC50 in µM where a hit was titrated;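 active means confirmed in a dose series; inconclusive means inhibition above 80% but not taken into the dose series; inactive means below 80% or under 30% at every dose of the series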;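 further: bacteria incubated seven days before Alamar blue readout; 0% = bacteria only wells and 100% = bacteria with antibiotic wells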
# RecA intein inh: inhibitors of M. tuberculosis RecA intein splicing. cell-free RecA intein splicing, fluorescence. 290,000 tested, 0.75% active. inhibition, %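 (about 9 µM by stock and volumes)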; in the data active means inhibition above about 30%; inconclusive means no clear call, values can overlap the other calls;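 further: 0% = vehicle wells and 100% = reference inhibitor control wells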
# Target sequence (P9WHJ3 whole entry, looked up): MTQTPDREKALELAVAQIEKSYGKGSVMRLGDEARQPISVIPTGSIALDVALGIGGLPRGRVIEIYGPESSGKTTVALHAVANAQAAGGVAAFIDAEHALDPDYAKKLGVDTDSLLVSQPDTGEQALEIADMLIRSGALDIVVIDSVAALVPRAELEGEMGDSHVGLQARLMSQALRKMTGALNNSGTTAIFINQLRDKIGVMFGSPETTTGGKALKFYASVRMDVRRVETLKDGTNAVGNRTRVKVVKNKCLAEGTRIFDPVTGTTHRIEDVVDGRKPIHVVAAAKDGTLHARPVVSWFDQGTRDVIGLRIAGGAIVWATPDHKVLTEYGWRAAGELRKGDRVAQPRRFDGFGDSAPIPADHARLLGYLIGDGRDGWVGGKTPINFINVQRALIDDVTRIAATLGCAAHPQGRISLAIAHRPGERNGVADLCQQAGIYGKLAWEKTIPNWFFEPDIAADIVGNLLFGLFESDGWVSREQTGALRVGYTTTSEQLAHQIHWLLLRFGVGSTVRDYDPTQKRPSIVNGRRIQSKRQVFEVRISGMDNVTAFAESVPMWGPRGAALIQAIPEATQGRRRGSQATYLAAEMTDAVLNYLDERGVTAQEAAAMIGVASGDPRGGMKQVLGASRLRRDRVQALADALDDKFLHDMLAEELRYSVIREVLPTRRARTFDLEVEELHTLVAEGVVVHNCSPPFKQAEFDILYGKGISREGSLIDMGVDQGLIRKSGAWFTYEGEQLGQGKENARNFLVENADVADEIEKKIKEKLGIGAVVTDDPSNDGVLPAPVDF
# Mtb bLac sens: beta-lactam sensitization of Mtb H37Rv. M. tuberculosis H37Rv growth with meropenem, percent inhibition; hits of this screen are not shown here. inhibition, % at 25 µM. 330,000 tested, 0.27% active;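 active means about 74% or more and at least 40 points above the plate without the antibiotic, then above 30% in a dose series; inconclusive means first-round hits that could not be retested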;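 further: growth measured after seven days incubation then overnight dye step; 0% = bacteria only wells and 100% = bacteria with antibiotic; twin plates without the antibiotic show which effects depend on it; some results filed as inactive read as strong as hits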
# Arbovirus anti: antivirals against arbovirus infection. inhibition, % at 10 µM. AID 1251. arbovirus infection cell-based antiviral screen. 200,000 tested, 0.37% active;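 active means inhibition from about 30%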;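 further: bluetongue infection of BSR cells; cell survival read as ATP light after 72 h; 0% = infected wells without compound and 100% = uninfected wells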
# Arbovirus anti repeat: further read-out of Arbovirus anti, marked with its call; inhibition, %; measured here: 10K subset replicate screen; many hits read low in the repeat;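 first of two repeat runs on a subset; 0% = infected and 100% = uninfected wells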
# Starred values were filed as active, the others as inactive; ? = inconclusive; · = not tested or not shown; & = joins results of further samples. These rows are one share of the data, so the mix of outcomes need not match the whole.
SMILES,YopH PTP inh,Mtb H37Rv,RecA intein inh,Mtb bLac sens,Arbovirus anti,others
COc1ccc(-c2cnc(SCC(=O)Nc3cc(C)on3)n2Cc2ccco2)cc1,-1,·,-0.8,74,13,
COc1cc(NC(=S)NC(C)=O)ccc1NC(=O)C(C)C,-47,-7%,-6.0,39,4,
CCCCCCn1c(N)c(C#N)c2ccc([N+](=O)[O-])cc2c1=O,·,0%,-16,1,2,
Cc1ccc(S(=O)(=O)Nc2nc3ccccc3nc2N2CCN(c3ccccc3F)CC2)cc1,-14,-4%,4.1,3,20,
COCCn1c(COc2ccc(OC)cc2)nc2ccccc21,-31,4%,3.2,-4,-7,
COC(=O)[C@H](Cc1c[nH]c2ccccc12)NC(=O)CCCc1c[nH]c2ccccc12,·,·,4.1,0,·,
O=S1(=O)[C@H]2C[C@@H]3C=C[C@@]2(CN1Cc1ccccc1F)O3,·,·,-1.0,-7,·,
O=C(O)CCC(=O)N1CCN(c2ncccn2)CC1,·,16%,-3.1,-3,·,
CCOC(=O)CN1C(=O)C2(C(C#N)=C(N)Oc3ccccc32)C(C(=O)OC)=C1C (stereo not drawn),-12,-8%,·,-10,4,
CN(CC(=O)Nc1ccc2c(c1)OCCO2)S(=O)(=O)c1cccc2cccnc12,-64,-4%,2.0,-3,9,
O=C(c1ccccc1OCc1ccc(Cl)cc1)N1CCN(c2ccccn2)CC1,·,·,8.5,5,·,
COC(=O)CSc1n[nH]c(-c2ccncc2)n1,4,-14%,1.9,-5,11,
COc1c([N+](=O)[O-])cc(C(=O)NNC(=O)c2ccc(C)cc2)cc1[N+](=O)[O-],·,·,5.2,93,·,
COc1ccc(N2C(=O)c3ccccc3NC2c2ccc(OC)c(CSc3ccccn3)c2)cc1 (stereo not drawn),2,-1%,-4.6,2,-12,
CC1(C)CC2CC(C)(CN2C(=O)c2cc(-c3ccccc3O)on2)C1 (stereo not drawn),-12,21%,-0.7,2,23,Arbovirus anti repeat=-2
O=C(CS(=O)(=O)c1ccccc1)Nc1ccccn1,·,-5%,1.2,5,1,
Fc1ccccc1N1CCN(CCCNc2ccc3nncn3n2)CC1,-22,-11%,-10.0,-3,5,
O=c1oc2ccccc2cc1-c1nc(-c2cccs2)cs1,-16,8%,·,0,-1,
CN1C(=O)NC(NC(=O)C2CCCCC2)(C(F)(F)F)C1=O (stereo not drawn),-26,-1%,-4.9,-8,3,
O=C(O)c1cc(-c2ccc(Cl)cc2)n(-c2ccccc2)n1,·,-3%,-2.4,-9,8,

# 3 structures from above, sorted by number of heavy atoms, descending:
SMILES,YopH PTP inh,Mtb H37Rv,RecA intein inh,Mtb bLac sens,Arbovirus anti,others
CN(CC(=O)Nc1ccc2c(c1)OCCO2)S(=O)(=O)c1cccc2cccnc12,-64,-4%,2.0,-3,9,
Fc1ccccc1N1CCN(CCCNc2ccc3nncn3n2)CC1,-22,-11%,-10.0,-3,5,
O=C(CS(=O)(=O)c1ccccc1)Nc1ccccn1,·,-5%,1.2,5,1,

# The results go on:
SMILES,YopH PTP inh,Mtb H37Rv,RecA intein inh,Mtb bLac sens,Arbovirus anti,others
COc1cc(C(=O)NNC(=O)C2CC2)cc(OC)c1OC,·,·,1.4,-1,·,
Cc1ccc(C2N(c3ccc(F)cc3)C(=O)C3CCCN32)cc1 (stereo not drawn),-4,-4%,2.5,-5,6,Arbovirus anti repeat=-4
O=C(CSc1nnc(-c2c[nH]c3ccccc23)o1)N1CCCCC1,-34,34%,0.0,10,1,
Cc1c([N+](=O)[O-])c([N+](=O)[O-])nn1CC(=O)NCc1cccnc1,·,-5%,-3.3,1,3,
Nc1cccc(C(=O)NCCNC(=O)c2cccc(N)c2)c1,·,·,1.5,-3,·,
Cc1nc(C(=O)Nc2ccccc2)sc1C1(C)CC(c2cccnc2)=NO1 (stereo not drawn),·,0%,-2.6,2,·,
COCCN(C(=O)CC1C(=O)NCCN1Cc1ccc(-c2ccccc2)cc1)C(C)C (stereo not drawn),·,5%,-0.9,2,7,
CCN(c1ccccc1)S(=O)(=O)c1ccc(Cl)c(NC(=O)CSc2nncs2)c1,5,6%,7.8,3,2,
CCOC(=O)C(CC)(CC)C(=O)/C=C/c1cccc(Br)c1,9,11%,6.1,4,·,
CSCCCNC(=O)c1ccccc1OC1CCN(S(C)(=O)=O)CC1,·,-14%,-4.4,-1,-6,
O=C(Nn1cnnc1)c1ccccc1F,·,·,-4.4,-3,·,
O=C(c1ccoc1)N1CCC2(CC1)Oc1ccc(Cl)cc1C(=O)C21CC(c2ccccc2)=NO1 (stereo not drawn),·,73%,19,99,·,
CC(=O)Nc1ccc(NC(=O)C2CCCN(S(=O)(=O)c3ccc(-n4cnnn4)cc3)C2)cc1 (stereo not drawn),·,·,0.1,1,·,
C=C(C)Cn1c(N2CCN(c3ccc(OC)cc3)CC2)nc2c1c(=O)n(C)c(=O)n2C,·,6%,13,-6,2,
O=C(Cc1ccccc1)NNC(=O)C1CCCC1,·,-7%,·,0,22,
COc1ccc(N2CCN(C(=O)c3cc4c(s3)-c3ccccc3OC4)CC2)cc1,·,·,0.8,0,·,
O=C(Nc1ccc(N2CCCCC2)c(Cl)c1)c1ccc(N2CCOCC2)c([N+](=O)[O-])c1,-36,40µM*,10,90,-26,
CC(C)(C)C(=O)NC1CCN(S(=O)(=O)c2ccc(C(F)(F)F)cc2)CC1,1,4%,0.6,9,-2,
Cc1cc(Cl)ccc1NC(=O)CN1CCC(C(O)(c2ccccc2)c2ccccc2)CC1,-21,74%,9.7,49,-36,
CCCCC(=O)Nc1ccc(C(=O)N2CCC(C(=O)OCC)CC2)cc1,-19,4%,1.9,4,5,

# Copied from the results shown for reference:
SMILES,YopH PTP inh,Mtb H37Rv,RecA intein inh,Mtb bLac sens,Arbovirus anti,others
O=C(O)c1cc(-c2ccc(Cl)cc2)n(-c2ccccc2)n1,·,-3%,-2.4,-9,8,
COc1cc(C(=O)NNC(=O)C2CC2)cc(OC)c1OC,·,·,1.4,-1,·,
Cc1ccc(C2N(c3ccc(F)cc3)C(=O)C3CCCN32)cc1 (stereo not drawn),-4,-4%,2.5,-5,6,Arbovirus anti repeat=-4
O=C(CSc1nnc(-c2c[nH]c3ccccc23)o1)N1CCCCC1,-34,34%,0.0,10,1,
Cc1c([N+](=O)[O-])c([N+](=O)[O-])nn1CC(=O)NCc1cccnc1,·,-5%,-3.3,1,3,
Nc1cccc(C(=O)NCCNC(=O)c2cccc(N)c2)c1,·,·,1.5,-3,·,
Cc1nc(C(=O)Nc2ccccc2)sc1C1(C)CC(c2cccnc2)=NO1 (stereo not drawn),·,0%,-2.6,2,·,
COCCN(C(=O)CC1C(=O)NCCN1Cc1ccc(-c2ccccc2)cc1)C(C)C (stereo not drawn),·,5%,-0.9,2,7,
CCN(c1ccccc1)S(=O)(=O)c1ccc(Cl)c(NC(=O)CSc2nncs2)c1,5,6%,7.8,3,2,
CCOC(=O)C(CC)(CC)C(=O)/C=C/c1cccc(Br)c1,9,11%,6.1,4,·,
CSCCCNC(=O)c1ccccc1OC1CCN(S(C)(=O)=O)CC1,·,-14%,-4.4,-1,-6,
O=C(Nn1cnnc1)c1ccccc1F,·,·,-4.4,-3,·,
O=C(c1ccoc1)N1CCC2(CC1)Oc1ccc(Cl)cc1C(=O)C21CC(c2ccccc2)=NO1 (stereo not drawn),·,73%,19,99,·,
CC(=O)Nc1ccc(NC(=O)C2CCCN(S(=O)(=O)c3ccc(-n4cnnn4)cc3)C2)cc1 (stereo not drawn),·,·,0.1,1,·,
C=C(C)Cn1c(N2CCN(c3ccc(OC)cc3)CC2)nc2c1c(=O)n(C)c(=O)n2C,·,6%,13,-6,2,
O=C(Cc1ccccc1)NNC(=O)C1CCCC1,·,-7%,·,0,22,
COc1ccc(N2CCN(C(=O)c3cc4c(s3)-c3ccccc3OC4)CC2)cc1,·,·,0.8,0,·,
O=C(Nc1ccc(N2CCCCC2)c(Cl)c1)c1ccc(N2CCOCC2)c([N+](=O)[O-])c1,-36,40µM*,10,90,-26,
CC(C)(C)C(=O)NC1CCN(S(=O)(=O)c2ccc(C(F)(F)F)cc2)CC1,1,4%,0.6,9,-2,
Cc1cc(Cl)ccc1NC(=O)CN1CCC(C(O)(c2ccccc2)c2ccccc2)CC1,-21,74%,9.7,49,-36,
CCCCC(=O)Nc1ccc(C(=O)N2CCC(C(=O)OCC)CC2)cc1,-19,4%,1.9,4,5,

# Going on with the list:
SMILES,YopH PTP inh,Mtb H37Rv,RecA intein inh,Mtb bLac sens,Arbovirus anti,others
CCC(=O)Nc1cccc(NC(C)=O)c1,-28,·,6.1,·,12,
Cc1sc2nc(COC(=O)c3cccc(S(=O)(=O)N(C)c4ccccc4)c3)[nH]c(=O)c2c1C,·,-7%,-3.1,-5,6,
CCOC(=O)N1CCC(N(CCN(C)C)C(=S)Nc2ccc(F)c(Cl)c2)CC1,·,-3%,-0.9,3,3,
O=C(Nc1cccc(C(F)(F)F)c1)c1cccc(NS(=O)(=O)c2ccc(O)c(C(=O)O)c2)c1,·,·,-0.4,-3,·,
CN(c1nc2ccccc2nc1Cl)S(=O)(=O)c1ccccc1,·,·,-0.6,-6,·,
COc1cccc(-n2c(C)c3c(OC)cccc(=O)c3c2C)c1,·,-12%,13,10,-6,
COc1cc(OC)cc(C(=O)Nc2ccc(S(=O)(=O)Nc3cc(C)nc(C)n3)cc2)c1,-33,·,-0.1,4,-1,
CCCCc1nc2cc(C(=O)NCc3cc(C)n(C)n3)ccc2o1,·,·,0.6,-1,·,
Cc1ncc(S(=O)(=O)C(C)(C)C)c(N)n1,·,-9%,0.6,0,·,
OCCN(CCO)CC(O)COc1ccc(Br)cc1 (stereo not drawn),·,-2%&4%,1.2&1.0,-6&-1,·,
CCN(CC)C(=O)Oc1ccccc1NC(C)=O,-23,-9%,0.5,4,4,Arbovirus anti repeat=-1
CC(=O)c1cnc(Nc2nc(C)c3ccc(C)cc3n2)nc1C,-43,-8%,-3.9,16,4,
CCOc1ccc(CN2CCCC(CO)(Cc3ccccc3F)C2)cc1 (stereo not drawn),·,·,2.3,4,·,
CC(=O)CCc1c(C)[nH]c2ccc(NC(C)=O)cc2c1=O,-18,-8%,-0.1,-2,4,Arbovirus anti repeat=-3
Clc1cnc(Nc2cccnc2)c(Cl)c1,·,·,0.8,4,·,
O=C(CCNS(=O)(=O)c1ccc(Br)s1)NCc1ccccc1,·,-8%,-4.1,-1,-7,
COc1ccc(N(CC(=O)NCCOc2ccccc2)S(=O)(=O)c2ccc(C)cc2)cc1,·,·,-2.1,2,·,
O=C(c1ccco1)N1CCN(C(=O)c2ccc(COc3ccc(Cl)cc3Cl)o2)CC1,-11,-5%,16,45,·,
CC(C)(C)c1cc(CN2CCOCC2)c(C(=O)O)o1,-27,-1%,-2.1,-11,1,
CCC(C)NS(=O)(=O)c1ccc(NC(=O)C(Sc2ccccc2)c2ccccc2)cc1 (stereo not drawn),-17,30%,-0.4,4,-15,
CC(C)(C)NC(=O)C(c1ccccn1)N(C(=O)c1csnn1)C1CCCC1 (stereo not drawn),·,-12%,-0.4,3,·,
CCc1ccc(-c2cc(C(=O)Nc3c(C)n(C)n(-c4ccccc4)c3=O)c3ccccc3n2)s1,-19,2%,-3.2,62,-14,
CCOC(=O)N1CCc2c(sc(NC(=O)CN3CCOCC3)c2C#N)C1,·,2%,2.1,-8,·,
COc1ccc(C(=O)C2CCCN(C(=O)c3noc4c3CCCC4)C2)c(C)c1 (stereo not drawn),·,1%,1.3,-17,10,
Cc1ccc(S(=O)(=O)Cn2cnnn2)cc1,-34,-3%,1.6,-4,3,
COc1ccc(-c2nc(CS(=O)(=O)CC(=O)NCc3ccccc3Br)c(C)o2)cc1,·,·,0.5,7,·,
O=C(c1ccc(Cl)nc1)c1cccs1,·,·,-1.3,89,·,
Nc1cccc(C(=O)Nc2ccc(N)cc2Cl)c1,-27,-7%,-1.6,7,-2,Arbovirus anti repeat=-2
CCCCN(CC)CCNS(=O)(=O)c1ccc2c(c1)oc(=O)n2C,-28,-6%,-5.9,?,0,
CCN(CC)P(=O)(Nc1ccccc1Br)c1ccc(N(C)C)cc1NC(=O)c1ccco1 (stereo not drawn),·,1%,-3.4,-3,-1,
N#Cc1ccc(OCc2ccc(C(=O)O)o2)cc1,·,·,1.1,-12,·,
O=C1CCC[C@@H]2[C@H]3CCC[N+]4([O-])CCC[C@@H](CN12)[C@@H]34 (stereo partly drawn),·,·,-0.7,-3,·,
CCCCc1nc2cc(C(=O)N3CCCC3)ccc2o1,·,·,0.2,-4,·,
COCCSc1ccccc1C(=O)Nc1nnc(C)s1,-14,9%,4.5,0,3,
c1ccc(CSc2ncnc3c2sc2nc(N4CCOCC4)c4c(c23)CCCC4)cc1,-9,11%,-0.4,52,3,
O=C(O)CNS(=O)(=O)/C=C/c1ccccc1,·,2%,-1.7,2,4,

# From PubChem BioAssay
